Sa ugtP lethal – growth inhibition of S. aureus ugtP deletion strain | S. aureus RN4220 ugtP deletion, OD600 growth, 16 h; some inactives read as strong as hits | growth inhibition, % (no concentration beside the values) | hit rate 0.54% among 330,000;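 active = z-score under -3 and OD600 up to 0.15 on both plates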;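 also: plate controls were untreated wells for no effect and antibiotic for full effect; wells of about 80 µL received 100 nL stock; the first replicate is given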
Bead autofluor – compound fluorescence in toxin protease inhibitor counterscreen; compound autofluorescence counterscreen, microsphere flow cytometry; stronger effect = higher value; fluorescence intensity (test concentration not listed); hit rate 3.1% among 360,000; AID 624483;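 active = at least 3 SD above the mean of all compounds, about 16000 in these data; inconclusive = too few beads counted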;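 also: 100 nL of 1 mM stock went into each well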
Mtb hypoxia inh – inhibitors of hypoxia-regulated fluorescent reporter in Mycobacterium tuberculosis. AID 1159583. M. tuberculosis hypoxia-regulated fluorescent reporter, fluorescence. hit rate 0.1% among 300,000. fluorescence inhibition, % (no concentration beside the values);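 active = 35 to 45% if threefold the growth effect, above 45% if 1.5-fold the growth effect; inactive = the rest, general growth blockers included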;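 also: wells of about 50 µL received 100 nL stock; 0% = vehicle wells and 100% = reference inhibitor wells; whole bacteria with a GFP reporter of the hypoxia response; strong numbers were not always called active; many hits fall short of the cut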
BJeLR viability – BJeLR cell viability loss | BJeLR (HRASV12) viability, CellTiter-Glo ATP luminescence, 48 h; reference of the scale not given here | inhibition, % (concentration not given with the values) | hit rate 0.17% among 300,000 | AID 1554;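 active = replicate mean above 50%; inconclusive = above 50% but judged a plate artefact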;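 also: 50 nL library stock added to about 25 µL; numbers are from one replicate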
RN4220 kill – kills Staphylococcus aureus RN4220; hit rate 0.33% among 330,000; inhibition, % (concentration not given with the values); S. aureus RN4220 growth, OD600, 16 h;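 active = z-score of -3 or lower and OD600 up to 0.18 on both plates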;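 also: plate controls were untreated cells for no effect and reference antibiotic for full effect; stock transfer was 100 nL into about 80 µL; one replicate is shown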
PrP UTR inh – suppresses PrP 5' UTR mRNA reporter expression | cell-based PrP 5' UTR mRNA reporter, plate reader | inhibition, % (concentration not given with the values) | hit rate 0.35% among 340,000 | AID 488862;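 active = every replicate at 50% or more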;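 also: 0 = median of the neutral control wells; tested in H4 reporter cells; numbers are from one replicate; inactives centre near -14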
Mtb hypoxia inh growth – further read-out of Mtb hypoxia inh, marked with its call; growth inhibition, %; measured here: M. tuberculosis growth (absorbance);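 0% = vehicle and 100% = reference antibiotic; read after six days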
* marks the source's active call; other numbers are inactive results; ? = inconclusive; / = not tested or not shown.

Short keys: A = Sa ugtP lethal; B = Bead autofluor; C = Mtb hypoxia inh; D = Mtb hypoxia inh growth; E = BJeLR viability; F = RN4220 kill; G = PrP UTR inh
[1] Cc1ccc(-n2cccn2)cc1
  A: 1	B: 6215	C: 13	D: 9	E: 13	F: 2.9	G: -23

[2] C/C=C/C=C\C(=O)Nc1cccc(C2=NOC3(C2)C[C@H](C(N)=O)N(C(=O)CC#N)C3)c1 (stereo not given in full)
  A: /	B: 3762	C: /	D: /	E: -2	F: /	G: -10

[3] Cc1ccc(NC(=O)CSc2nc(=O)n3cc(C)ccc3n2)c(C)c1
  A: 8	B: ?	C: 7	D: 3	E: 4	F: 2.4	G: -14

[4] COc1cccc(C=NNC(=O)CN2C(=O)NC3NC(=O)NC32)c1 (stereo not given)
  A: -3	B: /	C: 4	D: 4	E: /	F: 3.7	G: /

[5] Cc1c(Cl)cccc1NC(=O)c1cccc(NC(=O)CCC(=O)O)c1
  A: -1	B: 4211	C: /	D: /	E: 7	F: 1.4	G: -18

[6] COC(=O)[C@H](CC(C)C)NC(=O)Nc1ccccc1F
  A: 12	B: 4574	C: 8	D: 5	E: -9	F: 3.4	G: -13

[7] COc1ccc(/C=C(\NC(=O)c2ccc(C)cc2)C(=O)Nc2c(C)n(C)n(-c3ccccc3)c2=O)cc1
  A: -1	B: 2144	C: /	D: /	E: -9	F: 1.6	G: -30

[8] CC(=O)N1CCN(S(=O)(=O)c2cccc(C(=O)Nc3ccc4c(c3)CCC4)c2)CC1
  A: 3	B: 3578	C: /	D: /	E: 4	F: 6.0	G: -8

[9] CC(=O)c1cccc(NC(=O)CN2C(=O)C3C4C=CC(C4)C3C2=O)c1 (stereo not given)
  A: 2	B: 12236	C: 4	D: 1	E: -5	F: 5.1	G: 6

[10] O=C(Nc1ccc(F)cc1)c1cccc(N2C(=O)C3C4C=CC(C5CC45)C3C2=O)c1 (stereo not given)
  A: 9	B: ?	C: 6	D: 6	E: 2	F: 2.9	G: -28

[11] CCn1c(CNC(=O)c2ccccc2Cl)cc2ccccc21
  A: 14	B: 3940	C: 18	D: 5	E: -12	F: 23	G: -33

[12] O=S(=O)(NCCc1ccccc1F)c1cccc(S(=O)(=O)N2CCOCC2)c1
  A: 6	B: 7642	C: -2	D: -6	E: -1	F: 4.5	G: -28

[13] Cc1nc2scc(C)n2c(=O)c1S(=O)(=O)NCC1CCN(Cc2ccc(F)cc2)CC1
  A: 15	B: 4722	C: 4	D: -6	E: -8	F: 6.0	G: -5

[14] O=C(NC(=S)Nc1ccc(N2CCOCC2)cc1)c1ccc(Cl)cc1
  A: 87*	B: 2687	C: 26	D: 19	E: -2	F: 3.4	G: -7

[15] CNC(C)C#Cc1ccc2c(=O)c3ccccc3oc2c1 (stereo not given)
  A: 5	B: 6207	C: 0	D: 7	E: 7	F: 8.5	G: -60

[16] O=C(O)c1ccc(C(=O)c2ccc3c(c2)C(=O)N(Cc2ccco2)C3=O)cc1
  A: 3	B: 3139	C: /	D: /	E: 2	F: 1.9	G: -20

[17] O=c1oc(-c2cccc(S(=O)(=O)N3CCOCC3)c2)nc2ccccc12
  A: -6	B: 2803	C: 6	D: 7	E: -2	F: -6.4	G: -2

[18] CC(=O)N1CCN(C(=O)c2ccc(S(=O)(=O)Nc3cccc(C(F)(F)F)c3)cc2)CC1
  A: -3	B: ?	C: -5	D: 7	E: 13	F: 1.5	G: 4

[19] COc1ccccc1C/C(N)=N/OC(=O)COc1ccc(C)cc1C
  A: 47	B: 13990	C: 4	D: 1	E: 6	F: 0.1	G: /

[20] COc1cccc(C2C(C(=O)Nc3cccnc3)=C(C)Nc3nnnn32)c1OC (stereo not given)
  A: 2	B: 4340	C: 7	D: 2	E: 1	F: 2.8	G: -17

[21] COc1ccccc1N1CCN(C2CCCN(C(=O)c3cc(C)oc3C)C2)CC1 (stereo not given)
  A: 0	B: 4156	C: -1	D: -3	E: 0	F: -2.9	G: -3

[22] CC1=C(O)C(=O)OC1c1c(Cl)cccc1Cl (stereo not given)
  A: 8	B: 3340	C: 2	D: 4	E: -7	F: 4.8	G: -23

[23] Cc1ccc2nc(-c3ccc(NC(=O)C(C)Sc4nncs4)cc3)sc2c1 (stereo not given)
  A: 9	B: 5001	C: 3	D: -5	E: 10	F: -0.8	G: 35

[24] CCc1sc(C(=O)NNC(=O)CNC(=O)c2ccccc2F)cc1C
  A: 3	B: 6536	C: 3	D: 4	E: /	F: 1.4	G: -14

[25] CC1=NN(c2ccccc2)C(=O)/C1=C/c1cn(C)c2ccccc12
  A: -4	B: 4046	C: 10	D: 5	E: -12	F: 4.3	G: -21

[26] Cc1csc(SC(C)C(=O)Nc2ccccc2C)n1 (stereo not given)
  A: 0	B: 3900	C: 1	D: 10	E: /	F: 0.7	G: -11

[27] Cc1ccc(Cn2nnc3c(=O)n(CC(=O)N4CCCCC4)cnc32)cc1
  A: 10	B: 10699	C: 7	D: 7	E: -5	F: 6.6	G: -21

[28] COC(=O)c1cccc(NC(=O)CC2C(=O)NCCN2C(=O)Nc2ccccc2)c1 (stereo not given)
  A: -2	B: 5523	C: 4	D: 15	E: 0	F: -1.5	G: -15

[29] COc1ccc(C(C)NC(=O)c2ccc(Br)cc2)cc1OC (stereo not given)
  A: 4	B: 8348	C: 11	D: 2	E: -5	F: 0.5	G: -29

[30] C=CCn1c(=O)n(C(=O)OCC)c2cc(Br)ccc21
  A: 6	B: 2674	C: 6	D: 0	E: 1	F: 5.1	G: -11

[31] N/C(Cc1ccc(Cl)cc1Cl)=N\OC(=O)c1ccccc1
  A: 1	B: 2571	C: -6	D: 3	E: -7	F: 1.6	G: -12

[32] O=C(CCCn1c(=S)[nH]c2cc3c(cc2c1=O)OCO3)N1CCN(c2ncccn2)CC1
  A: -5	B: 20894*	C: -3	D: 1	E: -2	F: 0.2	G: 1

[33] COc1ccccc1C(=O)NC(=O)COC(=O)C1CC1C (stereo not given)
  A: 6	B: 5385	C: -1	D: 0	E: 9	F: 0.3	G: -9

[34] CCc1c(C)nc(SCC(=O)NNC(=O)c2ccco2)[nH]c1=O
  A: 4	B: 5801	C: 7	D: 10	E: 13	F: 4.9	G: -6

[35] CC[C@H](C)C1NC(=O)[C@H](CC(=O)O)NC(=O)c2cc([N+](=O)[O-])cc(I)c2NCCC(C(N)=O)NC1=O (stereo not given in full)
  A: /	B: 3412	C: /	D: /	E: 13	F: /	G: -17

[36] CCOCCCNC(=O)c1cc2c(=O)n(CC)c3ccccc3c2s1
  A: 2	B: 4003	C: 4	D: 6	E: 3	F: -0.3	G: -19

[37] O=C1CC(c2ccco2)=Nc2ccccc2N1
  A: 7	B: 15016	C: -2	D: 14	E: 4	F: 5.4	G: -46

[38] CCOC(=O)c1ccccc1NS(=O)(=O)c1ccc(OC)cc1
  A: 4	B: 8460	C: 19	D: 11	E: -7	F: 9.0	G: -14

[39] CCC(CC)NC(=O)c1cc(S(=O)(=O)N2CCCCC2)ccc1N1CCOCC1
  A: 3	B: 6245	C: 8	D: 7	E: /	F: 3.3	G: -11

[40] CCOc1ccc(C(=O)c2cc([N+](=O)[O-])ccc2Cl)cc1
  A: 10	B: 2461	C: /	D: /	E: -2	F: -1.8	G: -22

[41] CCOc1ccc(C(=O)Nc2cccc(C(=O)O)c2C)cc1Cl
  A: -7	B: 2536	C: 4	D: 13	E: -12	F: 0.2	G: -47

[42] Cc1ccccc1S(=O)Cc1ccc(C(=O)NCCN2CCOCC2)o1 (stereo not given)
  A: 15	B: 5240	C: 5	D: 5	E: -9	F: 3.1	G: -7

[43] CC(=O)N1CCC2(CC1)CC(=O)c1cc(OCC(=O)N3CCN(C)CC3)ccc1O2
  A: 5	B: 7627	C: 3	D: 2	E: 3	F: 1.3	G: -1

[44] COc1ccc(-n2c(/C=C3\C(=O)Nc4ccccc43)nc3ccccc3c2=O)cc1
  A: /	B: 4320	C: /	D: /	E: -5	F: /	G: -1

[45] CCCN1C2CCCC1CC(NC(=S)Nc1ccc(OC)cc1)C2 (stereo not given)
  A: 2	B: 4779	C: 7	D: 15	E: -4	F: 0.6	G: -36

[46] O=C(c1ccc2nc[nH]c2c1)N1CCN(c2ncc(C(F)(F)F)cc2Cl)CC1
  A: -2	B: /	C: -6	D: -2	E: 8	F: 3.4	G: 12

[47] O=S(=O)(Nc1nc2ccccc2nc1Cl)c1ccc2c(c1)OCCO2
  A: 3	B: 4451	C: 18	D: 5	E: 6	F: 6.4	G: -1

[48] COC(=O)c1ccc(NC(=O)CNc2ccccc2)cc1
  A: 2	B: 4430	C: 7	D: 13	E: -4	F: 3.8	G: -13

[49] CC(=O)N1CCCSC1=Nc1ccccc1
  A: 5	B: 4199	C: 10	D: 9	E: 9	F: 8.5	G: -22

[50] O=C(NCc1ccncc1)C1CCCN(S(=O)(=O)c2ccc(Br)cc2)C1 (stereo not given)
  A: 7	B: 5941	C: 11	D: 10	E: 9	F: 0.8	G: -6

A draw from above in order of molecular weight, low to high.
Short keys: A = Sa ugtP lethal; B = Bead autofluor; C = Mtb hypoxia inh; D = Mtb hypoxia inh growth; E = BJeLR viability; F = RN4220 kill; G = PrP UTR inh
[48] COC(=O)c1ccc(NC(=O)CNc2ccccc2)cc1
  A: 2	B: 4430	C: 7	D: 13	E: -4	F: 3.8	G: -13

[33] COc1ccccc1C(=O)NC(=O)COC(=O)C1CC1C (stereo not given)
  A: 6	B: 5385	C: -1	D: 0	E: 9	F: 0.3	G: -9

[27] Cc1ccc(Cn2nnc3c(=O)n(CC(=O)N4CCCCC4)cnc32)cc1
  A: 10	B: 10699	C: 7	D: 7	E: -5	F: 6.6	G: -21

[47] O=S(=O)(Nc1nc2ccccc2nc1Cl)c1ccc2c(c1)OCCO2
  A: 3	B: 4451	C: 18	D: 5	E: 6	F: 6.4	G: -1

[28] COC(=O)c1cccc(NC(=O)CC2C(=O)NCCN2C(=O)Nc2ccccc2)c1 (stereo not given)
  A: -2	B: 5523	C: 4	D: 15	E: 0	F: -1.5	G: -15

[43] CC(=O)N1CCC2(CC1)CC(=O)c1cc(OCC(=O)N3CCN(C)CC3)ccc1O2
  A: 5	B: 7627	C: 3	D: 2	E: 3	F: 1.3	G: -1

(further entries)
Short keys: A = Sa ugtP lethal; B = Bead autofluor; C = Mtb hypoxia inh; D = Mtb hypoxia inh growth; E = BJeLR viability; F = RN4220 kill; G = PrP UTR inh
[51] COc1cccc(/C=C2\N=C(SC)SC2=O)c1OC
  A: 7	B: 9784	C: -1	D: 2	E: 2	F: 1.3	G: -16

[52] COc1cc2cccc(OC)c(=O)c2c(OC)c1OC
  A: -2	B: 4152	C: /	D: /	E: 4	F: 1.0	G: 13

[53] CCN(C[C@H]1N[C@@](Cc2ccccc2)(C(=O)OC)[C@H]2C(=O)N(C)C(=O)[C@@H]12)C(=O)Nc1ccc(F)cc1
  A: -1	B: 3466	C: 0	D: 10	E: /	F: 1.6	G: -5

[54] CCOC(=O)c1ccc(CNC(=O)Cn2nnc(-c3ccccc3)n2)o1
  A: -7	B: 3335	C: 8	D: 7	E: -10	F: 8.8	G: -11

[55] COc1ccc(CS(=O)c2nc(C)cc(C)c2S(C)(=O)=O)cc1 (stereo not given)
  A: 1	B: 4788	C: 10	D: 0	E: 6	F: 6.2	G: -23

[56] O=C1Nc2ccccc2C1Cc1ccccc1 (stereo not given)
  A: -1	B: 5442	C: -6	D: -3	E: -1	F: 3.1	G: -14

[57] NC(=O)Cn1nc(-c2ccccc2)nc1-c1ccccc1
  A: 1	B: 4464	C: 7	D: 13	E: 0	F: 4.7	G: -23

[58] CC(C)N1CCC(N2CCN(CCCn3cccn3)CC2CCO)CC1 (stereo not given)
  A: 4	B: 2604	C: 3	D: -2	E: -3	F: 2.5	G: -11

[59] CC(C)Nc1ncnc2c1cnn2-c1ccccc1
  A: -6	B: 5070	C: 2	D: 8	E: 3	F: 4.4	G: -53

Bioassay records from PubChem.

The order is random; about 4% have a hit in one of these screens.
